YopH PTP inh = YopH (Yersinia) phosphatase inhibition. 140,000 compounds, 0.16% hits. inhibition, %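 (about 10 µM by stock and volumes)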. fluorescence Ex485/Em525;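 active = inhibition of 50% or more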;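 also: controls were vehicle for no effect and minimum signal wells for full effect; inactives centre near -20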
Mtb betalactam = beta-lactam sensitization of Mtb H37Rv | M. tuberculosis H37Rv growth with meropenem, percent inhibition; hits of this screen are not shown here | inhibition, % at 25 µM | 330,000 compounds, 0.27% hits | AID 434955;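 active = about 74% or more and at least 40 points above the plate without the antibiotic, then above 30% in a dose series; inconclusive = first-round hits that could not be retested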;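 also: growth measured after seven days incubation then overnight dye step; 0% = bacteria only wells and 100% = bacteria with antibiotic; twin plates without the antibiotic show which effects depend on it; some results filed as inactive read as strong as hits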
RecA intein inh = inhibitors of M. tuberculosis RecA intein splicing. 290,000 compounds, 0.75% hits. cell-free RecA intein splicing, fluorescence. AID 2221. inhibition, %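 (about 9 µM by stock and volumes)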; in the data active = inhibition above about 30%; inconclusive = no clear call, values can overlap the other calls;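 also: 0% = vehicle wells and 100% = reference inhibitor control wells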
Target sequence (P9WHJ3 whole entry, looked up): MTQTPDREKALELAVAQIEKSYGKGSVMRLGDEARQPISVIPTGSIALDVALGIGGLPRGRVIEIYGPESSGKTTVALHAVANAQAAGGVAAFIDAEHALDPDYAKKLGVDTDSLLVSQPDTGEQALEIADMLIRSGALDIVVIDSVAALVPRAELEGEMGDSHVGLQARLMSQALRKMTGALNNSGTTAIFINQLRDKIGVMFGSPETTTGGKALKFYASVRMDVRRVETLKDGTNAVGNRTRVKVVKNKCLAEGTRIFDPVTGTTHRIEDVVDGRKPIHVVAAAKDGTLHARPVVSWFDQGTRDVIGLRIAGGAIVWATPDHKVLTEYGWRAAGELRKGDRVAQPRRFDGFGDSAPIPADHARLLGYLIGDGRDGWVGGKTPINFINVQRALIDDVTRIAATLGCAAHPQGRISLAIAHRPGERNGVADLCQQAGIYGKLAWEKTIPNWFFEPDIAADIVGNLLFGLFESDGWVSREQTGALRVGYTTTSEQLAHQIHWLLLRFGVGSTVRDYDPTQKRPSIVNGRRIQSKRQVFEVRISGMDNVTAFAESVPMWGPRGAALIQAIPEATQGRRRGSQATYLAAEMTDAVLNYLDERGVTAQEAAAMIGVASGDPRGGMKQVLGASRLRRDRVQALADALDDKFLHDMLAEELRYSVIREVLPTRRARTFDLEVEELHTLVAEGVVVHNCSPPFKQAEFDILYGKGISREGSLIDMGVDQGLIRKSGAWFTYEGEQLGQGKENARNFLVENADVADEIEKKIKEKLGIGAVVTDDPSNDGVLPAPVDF
Mtb growth = M. tuberculosis H37Rv growth inhibitors, H37Rv strain (AID 1626); inhibition, % at 10 µM, or IC50 in µM where a hit was titrated; M. tuberculosis H37Rv growth inhibition; higher % means a stronger effect; 220,000 compounds, 0.95% hits;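 active = confirmed in a dose series; inconclusive = inhibition above 80% but not taken into the dose series; inactive = below 80% or under 30% at every dose of the series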;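 also: bacteria incubated seven days before Alamar blue readout; 0% = bacteria only wells and 100% = bacteria with antibiotic wells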
Arbovirus inh = blocks arbovirus infection; arbovirus infection cell-based antiviral screen; inhibition, % at 10 µM; 200,000 compounds, 0.37% hits; AID 1251;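 active = inhibition from about 30%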;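 also: bluetongue infection of BSR cells; cell survival read as ATP light after 72 h; 0% = infected wells without compound and 100% = uninfected wells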
Arbovirus inh repeat = second read-out of Arbovirus inh, no call of its own (marks repeat the call); inhibition, %; measured here: 10K subset replicate screen; many hits read low in the repeat;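 first of two repeat runs on a subset; 0% = infected and 100% = uninfected wells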
Starred values were filed as active, the others as inactive; ? = inconclusive; nt = not tested or not shown.

SMILES | YopH PTP inh | Mtb betalactam | RecA intein inh | Mtb growth | Arbovirus inh | others
CCOc1ccc(N(C)C(=O)CCc2nnc3ccc(NCc4ccco4)nn23)cc1 | nt | 0 | -0.7 | nt | nt
CN(C)S(=O)(=O)c1cccc(NC(=S)NCCCn2ccnc2)c1 | nt | 8 | 0.5 | 2% | 1
O=C(CC1S/C(=N/N=C/c2c[nH]c3ccc(OCc4ccccc4)cc23)NC1=O)Nc1ccccc1 (stereo unspecified) | -4 | 10 | -1.7 | 1% | -1
COc1ccc(C(c2sc3ncnn3c2O)N2CC(C)OC(C)C2)cc1OC (stereo unspecified) | -7 | -4 | 1.4 | -3% | 1 | Arbovirus inh repeat=0
CC12CCC(C(=O)Nc3ccc(Cl)cc3)([C@H](Br)C1=O)C2(C)C (stereo partly specified) | nt | -1 | 5.2 | 5% | nt
O=c1c(Cl)c(Cl)cnn1Cc1nnc(-c2ccc(Cl)cc2)o1 | nt | nt | 37* | ? | -34
COc1ccc(/C=C2\CCCC3C2=NN(C(=O)CSc2n[nH]c(N)n2)C3c2ccc(OC)cc2)cc1 (stereo unspecified) | nt | 64 | 3.4 | 18% | -4
Cn1c(=O)c2c(nc(Br)n2CCc2ccccc2)n(C)c1=O | -3 | 0 | -3.5 | 2% | -5
Cc1ccc(NC(=O)COC(=O)Cn2cnc3ccccc32)c([N+](=O)[O-])c1 | nt | 4 | -2.7 | 3% | 9
O=C(CCl)Nc1ccc(-c2ccccc2)cc1 | nt | 100 | 75* | ? | -33
CCOC(=O)C1=C(C)NC(=O)NC1c1ccc(-c2ccccc2F)o1 (stereo unspecified) | -31 | 5 | -5.6 | 1% | -11
O=C(COc1cccc(NC(=O)c2cccs2)c1)c1ccc(F)cc1 | -16 | 0 | 0.4 | 0% | -25
CCS/C(N)=N/N=C/c1cc(C)ccc1O | -26 | 100 | -2.0 | 11% | -4
O=C(O)CN1C(=O)/C(=C\c2cc(Br)ccc2OCc2ccc(Cl)cc2)SC1=S | nt | 3 | 0.9 | nt | nt
CCCOc1ccc(-c2nc3c(c(=O)[nH]c(=O)n3Cc3ccccc3)n2CCO)cc1OCC | nt | -1 | -8.1 | nt | nt
CCNC(=O)c1cnn(-c2ccccc2)c1-c1ccccc1 | nt | -11 | -2.5 | nt | nt
O=C1COc2ccc(C(=O)c3ccccc3C(=O)O)cc2N1 | -25 | -6 | -1.7 | -1% | -1
CCCOc1ccc(C(=O)OCCN2CCCCC2)c(O)c1 | nt | -4 | -2.3 | nt | nt
COc1ccc(/C=C/C(=O)c2ccc3ccccc3c2O)cc1CN1CCOCC1 | -5 | 10 | -1.9 | 10% | 26
Nc1ccc(CNc2ncn[nH]2)cc1 | nt | -6 | -0.8 | -6% | nt
COc1ccc(-c2noc(CCC(=O)NC3CCCCC3)n2)cc1OC | -23 | 6 | nt | -13% | -1
COc1ccccc1NC(=O)CSc1ncn(-c2ccccc2)n1 | -10 | 7 | 0.2 | -6% | 0
CC(=O)N1c2ccc(S(=O)(=O)N3CCC(C(=O)N4CCN(c5ccc(Cl)cc5)CC4)CC3)cc2CC1C (stereo unspecified) | nt | -7 | 2.0 | nt | nt
CC(=O)c1ccc(NC(=O)Nc2ccc(Cl)cc2)cc1 | -17 | 2 | 14 | 4% | 12
Cc1cc(N/N=C/c2ccc(O)cc2O)nc(N2CCOCC2)n1 | nt | 5 | -2.9 | -5% | nt

In the list so far, these have an NH in an aromatic ring:
SMILES | YopH PTP inh | Mtb betalactam | RecA intein inh | Mtb growth | Arbovirus inh | others
O=C(CC1S/C(=N/N=C/c2c[nH]c3ccc(OCc4ccccc4)cc23)NC1=O)Nc1ccccc1 (stereo unspecified) | -4 | 10 | -1.7 | 1% | -1
COc1ccc(/C=C2\CCCC3C2=NN(C(=O)CSc2n[nH]c(N)n2)C3c2ccc(OC)cc2)cc1 (stereo unspecified) | nt | 64 | 3.4 | 18% | -4
CCCOc1ccc(-c2nc3c(c(=O)[nH]c(=O)n3Cc3ccccc3)n2CCO)cc1OCC | nt | -1 | -8.1 | nt | nt
Nc1ccc(CNc2ncn[nH]2)cc1 | nt | -6 | -0.8 | -6% | nt

The main list resumes, starting 6 compounds before the break.
SMILES | YopH PTP inh | Mtb betalactam | RecA intein inh | Mtb growth | Arbovirus inh | others
Nc1ccc(CNc2ncn[nH]2)cc1 | nt | -6 | -0.8 | -6% | nt
COc1ccc(-c2noc(CCC(=O)NC3CCCCC3)n2)cc1OC | -23 | 6 | nt | -13% | -1
COc1ccccc1NC(=O)CSc1ncn(-c2ccccc2)n1 | -10 | 7 | 0.2 | -6% | 0
CC(=O)N1c2ccc(S(=O)(=O)N3CCC(C(=O)N4CCN(c5ccc(Cl)cc5)CC4)CC3)cc2CC1C (stereo unspecified) | nt | -7 | 2.0 | nt | nt
CC(=O)c1ccc(NC(=O)Nc2ccc(Cl)cc2)cc1 | -17 | 2 | 14 | 4% | 12
Cc1cc(N/N=C/c2ccc(O)cc2O)nc(N2CCOCC2)n1 | nt | 5 | -2.9 | -5% | nt
CC(=O)N1CCCc2cc(S(=O)(=O)N3CCCC(C(=O)NCc4ccc(C)cc4)C3)ccc21 (stereo unspecified) | nt | 2 | -0.9 | nt | nt
O=C(Nc1ccc(Cl)c(Cl)c1)C1=Cc2ccccc2OC1 | -17 | 97 | 3.1 | 30% | -43
COc1ccc(OCC(=O)c2c(O)c3ccccc3oc2=O)cc1 | -106 | 2 | -0.8 | -11% | -5
COCOc1ccc(/C=C/C(=O)c2c(OCOC)cc(OCOC)c(CC=C(C)C)c2O)cc1OCOC | nt | -3 | 1.0 | 7% | nt
O=C(O)CC(NC(=O)C(c1ccccc1)c1ccccc1)c1ccc(F)cc1 (stereo unspecified) | nt | -4 | -0.1 | 0% | 5
Cc1cccc(-n2nc3c(c2NC(=O)c2ccco2)CS(=O)(=O)C3)c1C | nt | 3 | -1.0 | -2% | 14
CCOC(=O)C1CCN(C(=O)CSC2=NCCS2)CC1 | -22 | 62 | nt | nt | 0
Cc1ccc(C(=O)N/N=C/c2ccoc2)cc1C | nt | 0 | 4.2 | nt | nt
CC(=O)c1ccc(NC(=O)CCc2ccc(C)o2)cc1 | nt | 3 | -2.1 | nt | nt
O=C(OCC(=O)N1CCOCC1)c1cccc(F)c1 | nt | -4 | 1.5 | nt | nt
CCCn1c(N)c(C(=O)CSc2nnc(C)n2Cc2ccccc2)c(=O)n(C)c1=O | -5 | -6 | 2.9 | -6% | -1
Cc1cc(F)ccc1S(=O)(=O)N1CCC2(CC1)OCCN2S(=O)(=O)c1cccs1 | nt | -14 | 6.1 | nt | nt
COc1ccc(-c2cc(C(=O)Nc3cc(OC)c(OC)c(OC)c3)no2)cc1OC | -13 | 10 | 1.7 | -2% | 3
O=C(CSc1nnc(-c2ccccc2NC(=O)c2ccccc2)o1)OC1CCCCC1 | -5 | 24 | -0.2 | 62% | nt
CCOC(=O)c1cnn(-c2ccc(C)cc2)c1N | -23 | -6 | 1.3 | 13% | 5
CCN1CCCC1CNC(=O)CSCc1nc(-c2ccccc2C)oc1C (stereo unspecified) | -8 | 0 | 1.6 | -10% | -10
Cc1cccc(CN2CCC(CNC(=O)C3CCCN(S(=O)(=O)c4cnc[nH]4)C3)CC2)c1 (stereo unspecified) | -36 | -5 | nt | -8% | -3 | Arbovirus inh repeat=-2
CCOc1cc2[nH]c(=S)n(CCOC)c(=O)c2cc1OCC | -27 | 3 | 0.8 | -5% | 8
COc1cccc(C(=O)Nc2nc3ccccc3[nH]2)c1 | 1 | 93 | -0.9 | 46% | -5
CCC(C)c1ccc(NC(=S)N2CCN(c3ccccn3)CC2)cc1 (stereo unspecified) | nt | -2 | 8.6 | nt | nt
CC(=O)c1c(O)ccc2c(-c3ccccc3)cc(=O)oc12 | -27 | -4 | -67 | -9% | 0
COC(=O)Cn1c(=NC(=O)c2sc3ccccc3c2Cl)sc2cc(S(N)(=O)=O)ccc21 | -10 | 8 | -0.3 | 1% | 4
Cc1ccc(NC(=O)CCC(=O)NNC(=O)c2ccccc2[N+](=O)[O-])c(C)c1 | nt | -3 | -1.9 | 0% | 8
O=C(O)/C=C/C(=O)NCCC1=CCCCC1 | nt | -4 | -2.9 | 1% | 11
COC(CNC(=O)c1ccc2c(c1)nc(C)n2-c1cccc(F)c1)OC | -1 | 4 | 0.1 | -1% | 0
Following part.
SMILES | YopH PTP inh | Mtb betalactam | RecA intein inh | Mtb growth | Arbovirus inh | others
CCc1nn(CC(=O)NCCCN(C)C2CCCCC2)c(=O)c2cc3occc3n12 | nt | 0 | 3.6 | nt | nt
O=C(CNC(=O)c1ccco1)N/N=C/c1cccs1 | nt | -4 | -1.1 | -12% | nt
O=C(Nc1ccc(Br)cc1)c1cccc(OC(=S)N2CCOCC2)c1 | nt | 4 | -0.9 | nt | nt
Cc1cc(C(=O)NNC(=O)c2nn(C)c(=O)c3ccccc23)c(C)o1 | nt | 2 | -0.6 | -1% | 2
O=C(COC(=O)/C=C/c1cccc(Cl)c1)Nc1ccccc1-c1ccccc1 | -14 | 2 | 0.1 | 7% | -11
CCC(CC)C(=O)Nc1c2c(nn1-c1ccc(F)cc1)CS(=O)(=O)C2 | nt | -16 | 0.2 | nt | nt
O=C(CS(=O)(=O)c1ccccc1)NCc1ccccc1 | nt | -12 | -1.5 | nt | nt
CC(=O)Nc1cc2nc(C)n(Cc3ccc([N+](=O)[O-])cc3)c2nc1C | nt | -5 | -4.2 | nt | nt
CCCn1cc(CN2CCCC(C(=O)c3ccc4c(c3)OCO4)C2)c(C)n1 (stereo unspecified) | nt | 4 | 1.7 | nt | nt
COc1ccccc1NC(NC(=O)c1cccnc1)C(Cl)(Cl)Cl (stereo unspecified) | nt | 3 | -2.6 | 7% | 25
COc1ccc(C(=O)N(C)Cc2ccc(C)o2)cc1OC1CCN(C(C)=O)CC1 | nt | ? | -0.3 | nt | nt
Cc1cc(NC(=O)CSc2nc(-c3ccccc3)cs2)no1 | -5 | 0 | 0.8 | 5% | 0
O=c1[nH]c(/C=C/c2cccnc2)c([N+](=O)[O-])c(=O)[nH]1 | nt | 1 | 41* | 0% | -1
COc1cc(NC(=O)C2CCC(CNS(=O)(=O)c3csc(C(N)=O)c3)CC2)cc(OC)c1 (stereo unspecified) | nt | 6 | -3.1 | nt | nt
CCSc1nc(=S)n(Cc2ccccc2)c(C)c1C(C)=O | -18 | -5 | 19 | 3% | 6
O=[N+]([O-])c1ccccc1-c1cc(-c2ccccc2)cc(-c2ccccc2)[n+]1Cc1ccccc1Cl | nt | 100 | 16 | nt | nt
CSC[C@H](NC(=O)Cc1c(C)c2cc3c(C)c(C)oc3cc2oc1=O)C(=O)N[C@@H](Cc1ccccc1)C(=O)O | nt | -4 | 12 | nt | nt
Cc1cccc(C)c1OC(=O)CN(c1ccc(Cl)cc1)S(C)(=O)=O | 4 | ? | 2.0 | -1% | 9
CN(C)c1c2ccccc2nc2c(F)c(F)c(F)c(F)c12 | nt | 2 | -167 | 60% | -22
COc1ccc(OC(C)C(=O)NCCc2nc3ccccc3[nH]2)cc1 (stereo unspecified) | -21 | 0 | -1.8 | -6% | 8
C1CN(c2nc3nonc3nc2N2CCOCC2)CCO1 | nt | -7 | -2.1 | -1% | nt
CC(C)c1cc(C(=O)OCC(=O)NC(=O)NCc2ccco2)c(O)c(C(C)C)c1 | nt | 5 | -1.9 | 3% | -35
Cc1ccc(N=N/C(=C\O)C(=O)c2ccc(Cl)cc2)cc1 | nt | 77 | -1.3 | 7% | -34
CCCc1nnc(NC(=O)CC(C)c2ccccc2)s1 (stereo unspecified) | nt | -2 | -3.9 | nt | nt
CC1CCc2cc(F)ccc2N1C(=O)c1ccncc1 (stereo unspecified) | -16 | -3 | 0.2 | 3% | 5
COc1cc(NC(=O)COC(=O)CSc2ccccc2F)c(C)cc1[N+](=O)[O-] | -28 | 4 | -2.8 | -5% | -7
Cc1ccc(NC(=O)C(=O)NCC2CCCN2S(=O)(=O)c2cccs2)cc1C (stereo unspecified) | nt | 1 | 0.8 | nt | nt
COc1ccc(CNC(=O)CCC(=O)c2ccc(C)cc2)cc1OC | nt | 6 | -0.3 | nt | nt
COc1ccccc1C1/C(=C(/O)c2ccccc2)C(=O)C(=O)N1CC(C)C (stereo unspecified) | -30 | 19 | 1.1 | 20% | -8
O=C(c1ccc([N+](=O)[O-])o1)N1CCN(c2nc3ccc(F)cc3s2)CC1 | nt | 99 | -7.7 | nt | nt

Part of the list above in order of molecular weight, rising:
SMILES | YopH PTP inh | Mtb betalactam | RecA intein inh | Mtb growth | Arbovirus inh | others
O=c1[nH]c(/C=C/c2cccnc2)c([N+](=O)[O-])c(=O)[nH]1 | nt | 1 | 41* | 0% | -1
O=C(Nc1ccc(Br)cc1)c1cccc(OC(=S)N2CCOCC2)c1 | nt | 4 | -0.9 | nt | nt
O=[N+]([O-])c1ccccc1-c1cc(-c2ccccc2)cc(-c2ccccc2)[n+]1Cc1ccccc1Cl | nt | 100 | 16 | nt | nt

Some of the compounds tested, so the mix of outcomes need not match the whole.
